# nsP2pro inh = inhibitors of chikungunya virus nsP2 protease; Potency, µM (series often up to 24.9 µM), for the others: top-dose activity change, negative = inhibition, most hits filed as inhibitors; AID 1964107; FRET peptide cleavage, nsP2pro, fluorescence 1 h; Q8JUX6; 31,000 tested, 1.1% active; active means well fitted inhibition curve with a large enough effect; inconclusive means small, poorly fitted or top-dose-only effect; inactive means no such curve, though single readings can be large or run the other way; further: nearly all actives have a fitted effect of over 60% in size; a reference inhibitor and vehicle were the controls
# Numbers without * were called inactive; i = inactive; ? = inconclusive; & = joins results of further samples; [ ] = dose if it differs, or a comment. On the % scale 0 is the no-effect control and ±100 the full control effect; potency means the concentration at half of the fitted maximal effect. An excerpt (hit frequency here may not be typical).
# A first look, five compounds:
SMILES,nsP2pro inh
O=C(Nc1cc(Cl)cc(Cl)c1)c1ccn2nccc2c1,-10%[39.2 µM]
COc1cc(O)c(C(CC(=O)N2CC(C)CC(C)C2)c2ccc3c(c2)OCCO3)c(OC)c1 (configuration not stated),2%
COc1cc(NC(=O)CSc2nc(-c3ccc(C(C)C)cc3)no2)cc(OC)c1,-22%
CCCC1CCCCN1 (configuration not stated),6%
Cc1ccc(C)c(NC(=O)CCc2nc(-c3ccc(C(C)(C)C)cc3)no2)c1,-23%

# The list itself, repeating the preview:
SMILES,nsP2pro inh
O=C(Nc1cc(Cl)cc(Cl)c1)c1ccn2nccc2c1,-10%[39.2 µM]
COc1cc(O)c(C(CC(=O)N2CC(C)CC(C)C2)c2ccc3c(c2)OCCO3)c(OC)c1 (configuration not stated),2%
COc1cc(NC(=O)CSc2nc(-c3ccc(C(C)C)cc3)no2)cc(OC)c1,-22%
CCCC1CCCCN1 (configuration not stated),6%
Cc1ccc(C)c(NC(=O)CCc2nc(-c3ccc(C(C)(C)C)cc3)no2)c1,-23%
CCC(=O)Nc1cc(-c2cccc(C)c2)nn1-c1ccccc1,-17%
CC1CCN(S(=O)(=O)c2ccc3c(c2)c(=O)c(C(=O)NC(C)c2ccccc2)cn3C)CC1 (configuration not stated),-25%
O=C(Nc1nnc(-c2ccncc2)s1)Nc1cccc2ccccc12,i
CC1=C(C)C(=O)OC(C(C)C2CCC3C4C5OC5C5(O)CC(OC6OC(CO)C(OC7OC(C)C(O)C(O)C7O)C(O)C6O)CC(O)C5(C)C4CCC23C)C1 (configuration not stated),-3%[10 µM]
CCC(C(=O)N(C)Cc1ccc(OC)c2ncccc12)n1cccn1 (configuration not stated),2%
CCOC(=O)c1[nH]c(C)c(C(=O)NCc2ccc(F)cc2)c1C,-7%
O=C(O)CCc1nc(C2CCOCC2)n[nH]1,-2%
CC(O)C(C)n1ncn(-c2ccc(N3CCN(c4ccc(OCC5COC(Cn6cncn6)(c6ccc(Cl)cc6Cl)O5)cc4)CC3)cc2)c1=O (configuration not stated),32%
COc1cc(/C=C\c2ccc(O)cc2)cc(OC)c1,2%
S=C(Nc1ccccn1)c1ccccn1,-4%
COc1ccc(C)cc1NC(=O)c1ccc(NS(=O)(=O)c2c(C)noc2C)cc1,-19%
CC1CCCN(c2nc(-c3ccccc3O)nc3ccccc23)C1 (configuration not stated),-16%
Cn1cc(-c2ccncc2)c(-c2ccc(OCc3ccc4ccccc4n3)cc2)n1,65%[activator]
N#Cc1ccc(S(=O)(=O)Nc2cnccc2C(=O)Nc2nc(-c3ccccc3)cs2)cc1,i
CCc1nn2c(=O)cc(COC(=O)c3cccc(NC(=O)COc4ccccc4F)c3)nc2s1,-29%
CCOc1ccc(C2C=C(c3cccc(OC)c3)Nc3nnnn32)cc1 (configuration not stated),-15%
CCOC(=O)c1c(C)[nH]c(CCC(=O)NC(C)c2ccccc2)c1C (configuration not stated),-17%
CC(C)CN(C[C@@H](OP(=O)(O)O)[C@H](Cc1ccccc1)NC(=O)O[C@@H]1CCOC1)S(=O)(=O)c1ccc(N)cc1,?
CC[C@H]1CN(S(=O)(=O)c2ccc(OC)cc2)CC[C@H]1CC(=O)NCc1cccnc1,2%[39.2 µM]
c1ccc2scnc2c1,-3%
O=C(Cc1ccc(Cl)c(Cl)c1)Nc1ccc(S(=O)(=O)O)cc1,i
O=C1CCCCC(CNC(=O)c2cn[nH]c2-c2ccccc2)N1 (configuration not stated),i
COc1ccc(C(=O)NC[C@H]2O[C@@H](CC(=O)N3CCN(c4ccccc4)CC3)[C@H](O)[C@@H]2O)cc1,2%
CCOC(=O)c1c(-c2ccccc2)oc2ccc(N(C(C)=O)S(=O)(=O)c3ccc(CC)cc3)cc12,-22%
CNC(=O)C1CCN(Cc2cc3ccccc3n2Cc2ccccc2C)CC1,0%
Cc1cc(C)c(CNC(=O)c2cccc(CCC(C)(C)O)c2)cn1,?
O=C(NCc1noc2ccccc12)Nc1ccc(F)cc1F,-21%
C[C@@H]1C[C@@H]([C@@H](O)C(C)(C)O)O[C@H]2C[C@@]3(C)C(=C12)C[C@H](O)[C@H]1[C@@]2(C)CCC(=O)C(C)(C)C2CC[C@@]13C (some centres not stated),?
O=C(Cn1ncc2c3ccccc3n(Cc3cccc(Cl)c3)c2c1=O)NC1CCCCCC1,-18%
COC(=O)[C@H](CC1CCCCC1)NC(=O)[C@@H]1CN(C(=O)c2ccc(N(C)C)cc2)CCN1C(C)=O,-12%
O=S(=O)(Nc1cnc2ccccc2c1)c1ccc(NCc2ccc(Br)cc2O)cc1,-26%
CC(O)CN1CC2(CCC1=O)CCN(C(=O)c1ccnn1C)CC2 (configuration not stated),-29%
O=C(c1noc2c1CCCC2)N1CCOc2ccc(CN3CCN(c4ccccn4)CC3)cc2C1,-1%
Fc1cc(Nc2nc(-c3ccncc3)nc3ccccc23)ccc1N1CCNCC1,1%
C=C(C(=O)O)[C@@H]1CC[C@@]2(C)CCC[C@@](C)(O)[C@@H]2C1,-6%
O=C(CCc1conc1-c1ccc(F)cc1)NC1CCCCC1,-4%
CC(C)CCNC(=O)[C@H](CC(C)C)NC(=O)[C@H]1O[C@@H]1C(=O)NCc1cccc(C#N)c1,2.5µM*
Cc1ccc(CNC(=O)N2CCCCCNC(=O)[C@@H]3CCC[C@@H]32)cc1,?
COc1ccc(NC(=O)Cn2c(=O)n(-c3ccc(C)c(C)c3)c(=O)c3c4c(sc32)CCCCC4)cc1Cl,-11%
COc1c(C(CC(C)C)OC(C)=O)ccc(Oc2c(O)cc(C)cc2/C=C/C(C)=O)c1C(=O)O (configuration not stated),?

# Arranged by SMILES length (low to high): 5 of the compounds above
SMILES,nsP2pro inh
c1ccc2scnc2c1,-3%
O=C(O)CCc1nc(C2CCOCC2)n[nH]1,-2%
CC(O)CN1CC2(CCC1=O)CCN(C(=O)c1ccnn1C)CC2 (configuration not stated),-29%
O=S(=O)(Nc1cnc2ccccc2c1)c1ccc(NCc2ccc(Br)cc2O)cc1,-26%
C=C(C(=O)O)[C@@H]1CC[C@@]2(C)CCC[C@@](C)(O)[C@@H]2C1,-6%

# Remaining list, next part
SMILES,nsP2pro inh
CN(C)c1ccc2c(c1)OC(N)=C(C#N)C2c1cccc(C(F)(F)F)c1 (configuration not stated),54%
COc1ccc2nc(NC(=O)c3nc(S(=O)(=O)Cc4ccccc4F)ncc3Cl)sc2c1,-5%
COc1ccc(NC(=O)c2ccc3c(c2)nnn3C2CCCC2)cc1Cl,-14%
CCC(Cn1nnc2ccccc2c1=O)NC(=O)Nc1cc(Cl)ccc1OC (configuration not stated),124%[activator]
COC(=O)c1sccc1S(=O)(=O)N1CCN2C(=O)CN(C)C(=O)C2C1 (configuration not stated),-5%
COc1ccc2c(c1)c1c(c(=O)n(-c3ccc(C)cc3)c(=O)n1CC(=O)c1ccc(Cl)cc1)n2C,-22%
Cc1cnc(-c2ccccc2OC(C)C)nc1NCc1ccc(-n2ccnn2)cc1,3%
C=C[C@@]1(C)CC(=O)C2[C@](C)(O1)[C@@H](OC(C)=O)[C@@H](O)[C@H]1C(C)(C)CCC[C@]21C (some centres not stated),-5%[5.1 µM]
NCCCC[C@@H]1NC(=O)[C@@H](Cc2c[nH]c3ccccc23)NC(=O)[C@H](c2ccccc2)NC(=O)[C@@H]2C[C@@H](OC(=O)NCCN)CN2C(=O)[C@H](Cc2ccccc2)NC(=O)[C@H](Cc2ccc(OCc3ccccc3)cc2)NC1=O,88%[activator][10 µM]
COc1ccc(NC(=O)c2c(NC(=O)c3ccncc3)sc3c2CCC(C(C)(C)C)C3)cc1 (configuration not stated),-18%
COc1ccc(-c2nc(CSc3nc4ncccc4[nH]3)c(C)o2)cc1OC,-1%
CC1(C)CC[C@]2(C(=O)O)CC[C@]3(C)C(=CCC4[C@@]5(C)C[C@@H](O)[C@H](O)[C@@](C)(CO)C5CC[C@]43C)[C@@H]2[C@@H]1O (some centres not stated),?
O=C(NC1(C(F)(F)F)C(=O)Nc2c1c(=O)[nH]c(=O)n2CCc1ccccc1)c1ccc(Cl)cc1Cl (configuration not stated),-29%
CC(=O)O[C@@H]1CC(C)=C2[C@H]1[C@H](C)CC[C@H]2/C=C(\C)C(=O)O,0%
CCN1C(=O)Cc2ccccc2C1C(=O)N(C)Cc1ccco1 (configuration not stated),?
O=C(CNC(=O)c1ccc2cc[nH]c2c1)OC(C(=O)Nc1cc(C(F)(F)F)ccc1Cl)c1ccccc1 (configuration not stated),-8%
CCc1cnc2c(c1SCc1ccccc1C)c(=O)n(C)c(=O)n2C,-14%
COc1ccc(CC(=O)Nc2ccc3ncnc(N4CCCC4)c3c2)c(Cl)c1,4%
COc1ccc(C2Nc3ccccc3C(=O)N2Cc2ccco2)cc1COc1c(C)cc(NC(C)=O)cc1C (configuration not stated),1%
CCn1cnc2c(Nc3ccc(Cc4cccnc4)cc3)nc(C#N)nc21,i
CCc1ccc(-c2nc3cc(NC(=O)c4cc5ccccc5cc4OC)ccc3o2)cc1,-22%
COc1ccc(-c2cc3c(cn2)CN(CCc2ccccc2)CCN3)cc1OC,i
Cc1ccc(N2CC(NC(=O)c3ccc4c(c3)OCO4)CC2=O)cc1 (configuration not stated),-7%
O=C(O)CCc1ccc(NCc2cccc3c2CCCN3CCOc2ccccc2)cc1F,131%[activator]
Cc1ccc(NC(=O)c2cc3c([nH]c2=O)CC(C)(C)CC3=O)c(C)c1,-25%
O=C(C1CCC(=O)N(C2CCCC2)C1)N1CCN(c2nccs2)CC1 (configuration not stated),-1%
CC(NC(=O)C1CCN(c2nc3ccccc3nc2C(F)(F)F)CC1)c1ccccc1 (configuration not stated),-9%
CCCCN(CC)CCCNC(=O)c1sc2nc3n(c(=O)c2c1C)CCCCC3,-14%
COCC1CCCN(C(=O)CC(c2ccc3c(c2)OCO3)c2c(O)cc(OC)cc2OC)C1 (configuration not stated),1%[39.2 µM]
CCCCCCNC(=O)n1cc(F)c(=O)[nH]c1=O,11%
COC(=O)c1cc2n(n1)CCCN(C(=O)c1cc(C)nc3ccc(C)cc13)C2,5%
Cc1cc(C)n(-c2cccc(CN3CCCC(O)(CN(C)C)C3)c2)n1 (configuration not stated),i
CN(CC(=O)Nc1ccc(N2CCOCC2)cc1)Cc1ccccc1O,-1%
Cc1ccc2c(c1)cc1c(=O)n(CC(=O)NCc3ccco3)nc(C)n12,-9%
Cc1cc(C(=O)C(=O)Nc2nnc(C(C)C)s2)c(C)n1-c1ccccc1,-24%
O=C1CCC2(CNC(=O)c3cc(F)ccc3F)CCC=C2N1 (configuration not stated),-12%
C[C@@H]1CN(S(=O)(=O)c2ccc3c(c2)OCCO3)CCN1S(=O)(=O)c1c(F)cccc1F,3%
Cc1ccc2occ(CC(=O)N(Cc3ccc(Cl)cc3)Cc3ccco3)c2c1,-16%
O=C(C1CCC1)N1CCc2cc(S(=O)(=O)NCCc3ccccc3)ccc21,-13%
O=S(=O)(c1ccccc1)N1CCCC(Cc2noc(-c3ccncc3)n2)C1 (configuration not stated),i
Cc1cccc(-c2nc3c4ccccc4n(CC(=O)Nc4cc(F)ccc4F)c(=O)n3n2)c1,-14%
CCc1nnc(SCc2cccc(F)c2)c2cc3sc(C)cc3n12,-10%
Cc1ccccc1-n1c(Cn2ncc3c(N)ncnc32)nc2cccc(C)c2c1=O,-16%
Cn1c(=O)cc(N2CCC[C@@H](N)C2)n(Cc2cc(F)ccc2C#N)c1=O,-8%&-3%
CC(C)[C@H](NC(=O)OCc1ccccc1)C(=O)NC(C=O)Cc1ccccc1 (some centres not stated),?

# Given tab-delimited: entries from further up.
Compound	nsP2pro inh
C[C@@H]1CN(S(=O)(=O)c2ccc3c(c2)OCCO3)CCN1S(=O)(=O)c1c(F)cccc1F	3%
Cc1ccc2occ(CC(=O)N(Cc3ccc(Cl)cc3)Cc3ccco3)c2c1	-16%

# Next section.
SMILES,nsP2pro inh
O=C1CCCC2=C1C(c1[nH]ncc1Cl)N=C(Nc1nc3cc(Br)ccc3o1)N2 (configuration not stated),i
COc1cccc(-c2nc(SCc3cc(=O)c4ccc(C)c(C)c4[nH]3)n[nH]2)c1,-20%
CC1CCCC(C)N1C(=S)Nc1cccc(C(F)(F)F)c1 (configuration not stated),-1%
Cn1nc2n(c1=O)CCC(NS(=O)(=O)c1cccnc1)CC2 (configuration not stated),4%
O=C1Cc2c(-c3ccccc3OCc3ccccc3)n[nH]c2CN1Cc1ccccn1,i
CCC(C(=O)N1CCCn2nc(C(=O)Nc3ccccc3)cc2C1)n1cccn1 (configuration not stated),i
CN[C@@H]1[C@H](O)[C@H](O[C@@H]2[C@H](O)[C@@H](O[C@H]3O[C@H]([C@@H](C)NC)CC[C@H]3N)[C@@H](N)C[C@H]2N)OC[C@]1(C)O,8%[5.1 µM]
CC(C)(C)NS(=O)(=O)c1cccc(-c2nnc(SCC(=O)Nc3ccc(C(=O)O)cc3)n2-c2ccc(F)cc2)c1,1%
COCCNC(=O)c1ccc(-c2ccc(N3CCCCC3)nc2)cc1,5%
CN(C[C@@H]1COCCO1)S(=O)(=O)Nc1ccc2ccc3ncc(-c4cnn(C)c4)cc3c(=O)c2c1,22%&-14%
CCOc1cc(N)c(Cl)cc1C(=O)NCC1CN(Cc2ccc(F)cc2)CCO1 (configuration not stated),1%
COc1cccc(NS(=O)(=O)c2cc3c4c(c2)C(C)C(=O)N4CCC3)c1 (configuration not stated),0%
CCCCN(CC)CCNC(=O)c1cc2c(=O)[nH]c3ccccc3c2n1C,10%
Cc1ncnc(N2CCN(C(=O)C3CCN(C(=O)C4CC4)CC3)CC2)c1C,i
CCc1nnc(NS(=O)(=O)c2ccc(NC(=S)NC(=O)/C=C/c3ccc(F)cc3)cc2)s1,69%[activator]
O=C(Nc1ccc2nc(SCC(=O)N3CCOCC3)sc2c1)c1ccc(Br)cc1,7%
O=C(Nc1nc(-c2ccccc2)cs1)c1ccccc1[N+](=O)[O-],0%
CSCC1OC(n2cnc3c(=O)[nH]cnc32)C(O)C1O (configuration not stated),3%

# Screens as filed in PubChem.
